Screening data as filed in PubChem.
2A StopGo = High Throughput Screening for Foot and Mouth Disease Virus Antivirals. human cells with a luciferase reporter of 2A StopGo recoding; control for the full effect not named in the record. Potency, µM (series often up to 57.9 µM), without a hit: at the highest dose signal change, negative = less light. AID 1159524, 2015. 1.2% of 410,000 active; active = well fitted falling curve with a large enough effect; inconclusive = small, poorly fitted or top-dose-only effect; inactive = no such curve, though single readings can be large or run the other way; tested in HEK293T cells; also: % is scaled to controls: 0 for no effect and ±100 for the full control effect; nearly all actives have a fitted effect of over 45% in size; luciferase light after 4 h
SARS PLpro yeast = qHTS of Yeast-based Assay for SARS-CoV PLP | Potency, µM (top dose mostly 32.9 µM), inactives show at the top dose activity, positive = growth rescue | S. cerevisiae expressing SARS-CoV PLpro, growth rescue; control for the full effect not named in the record | 0.19% of 330,000 active; also: 0% is about no effect; nearly all actives have a fitted effect of over 55% in size; growth read by luminescence after 48 h
Cruzain inh Det = qHTS Assay for Promiscuous and Specific Inhibitors of Cruzain (with detergent); Cruzipain (Trypanosoma cruzi), P25779; purified cruzain, Z-FR-AMC fluorescence, 0.01% Triton; Potency, µM, inactives show max response, negative = inhibition, actives largely listed as inhibitors; 0.43% of 200,000 active; AID 1478, 2009; active = well fitted curve in the direction sought with a large enough effect; inconclusive = small, poorly fitted or top-dose-only effect, or another doubt; inactive = no such curve, though single readings can be large; an effect the other way counts as inactive or inconclusive;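 also: plate controls were neutral wells for no effect and buffer without enzyme for full effect; nearly all actives have a fitted effect of over 40% in size; top concentration of the series not given in the record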
Target sequence (P25779 123-467 limits assumed): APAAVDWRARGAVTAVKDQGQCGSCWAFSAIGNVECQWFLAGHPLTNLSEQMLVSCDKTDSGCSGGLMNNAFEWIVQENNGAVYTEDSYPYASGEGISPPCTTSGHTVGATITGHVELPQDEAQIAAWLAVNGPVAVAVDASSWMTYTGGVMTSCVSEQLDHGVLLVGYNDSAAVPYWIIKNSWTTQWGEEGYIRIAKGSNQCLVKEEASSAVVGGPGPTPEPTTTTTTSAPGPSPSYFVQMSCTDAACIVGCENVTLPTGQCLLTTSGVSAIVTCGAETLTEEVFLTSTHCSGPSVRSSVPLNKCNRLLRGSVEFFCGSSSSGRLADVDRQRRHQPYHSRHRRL
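Detergent-containing arm of a paired screen for aggregation-based inhibition: 0.01% Triton X-100 present. Cruzain at 1.5 nM cleaved 2 uM Z-FR-AMC at pH 5.5 with 5 mM DTT; AMC fluorescence gain over 60 s measured activity.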
RE007 growth inh = qHTS Assay for Inhibitors of the HIV-1 protein Vpr. S. pombe RE007 Vpr strain, BacTiter-Glo ATP luminescence, 24 h; control for the full effect not named in the record. Potency, µM (top dose mostly 92.2 µM), for the others: at the highest dose activity change, negative = less growth. 0.21% of 360,000 active. AID 651644, 2012; active = well fitted falling curve with a large enough effect; inconclusive = small, poorly fitted or top-dose-only effect; inactive = no such curve, though single readings can be large or run the other way;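 also: % is scaled to controls: 0 for no effect and ±100 for the full control effect; nearly all actives have a fitted effect of over 50% in size; the assay follows cell death caused by Vpr and the record does not say whether a fall means rescue or toxicity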
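Fission yeast RE007 carrying one integrated HIV-1 vpr copy, seeded at OD 0.01 in PMG+AL medium with 23 nL pinned compound. Grown 24 h at 30 degrees; viability read by BacTiter-Glo luminescence after 5 min.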
Lassa entry inh = qHTS for Inhibitors of binding or entry into cells for Lassa Virus. Potency, µM (series often up to 37.9 µM), for the others: top-dose activity change, negative = inhibition, hits mostly inhibitors. Lassa virus pseudotype entry inhibition, cell reporter; control for the full effect not named in the record. 1.2% of 300,000 active; active means well fitted inhibition curve with a large enough effect; inconclusive means small, poorly fitted or top-dose-only effect, or effect the other way; inactive means flat fitted curve, though single readings scatter; tested in HEK293 cells; also: % is scaled to controls: 0 for no effect and ±100 for the full control effect; nearly all actives have a fitted effect of over 50% in size; luciferase read-out
Cruzain noTriton = qHTS Assay for Promiscuous and Specific Inhibitors of Cruzain (without detergent); Cruzipain (Trypanosoma cruzi), P25779; purified cruzain, Z-FR-AMC fluorescence, no detergent; Potency, µM, for the others: max response, negative = inhibition, hits mostly inhibitors; 2.3% of 200,000 active; AID 1476, 2009; active = well fitted curve in the direction sought with a large enough effect; inconclusive = small, poorly fitted or top-dose-only effect, or another doubt; inactive = no such curve, though single readings can be large; an effect the other way counts as inactive or inconclusive;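 also: plate controls were enzyme without inhibitor for no effect and buffer without enzyme for full effect; nearly all actives have a fitted effect of over 40% in size; top concentration of the series not given in the record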
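Detergent-free condition (0.00005% Triton X-100) in acetate buffer pH 5.5 with DTT. 1.5 nM enzyme and compound were pre-mixed 15 min, then 2 uM Z-FR-AMC substrate added; reaction progress from fluorescence change between first and third reads (60 s).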
Marburg entry inh = qHTS for inhibitors of binding or entry into cells for Marburg Virus | Marburg virus pseudotyped entry inhibition, cell reporter; control for the full effect not named in the record; about a third of the inactives were read at about 46 µM | Potency, µM (highest dose often 37.8 µM), inactives show at the highest dose activity change, negative = inhibition, usual class: inhibitors | AID 540276, 2011 | 1.8% of 300,000 active; active = well fitted inhibition curve with a large enough effect; inconclusive = small, poorly fitted or top-dose-only effect, or effect the other way; inactive = flat fitted curve, though single readings scatter; tested in HEK293 cells; about a fifth of its hits are not listed in these tables; also: % is scaled to controls: 0 for no effect and ±100 for the full control effect; luciferase read-out
NS1 inh = qHTS Assay for Inhibitors of Influenza NS1 Protein Function. S. cerevisiae slowed by influenza A NS1, growth recovery by OD600. Potency, µM (doses to about 46.1 µM), for inactives: at the top dose activity, positive = more growth. AID 2326, 2010. 0.4% of 270,000 active; also: actives are rising curves; nearly all actives have a fitted effect of over 50% in size
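In this qHTS, NS1 from influenza A is expressed in budding yeast, where it slows growth. Cells are switched from glucose to 2% galactose medium (pH 6.0, -URA), treated with compound, and growth recovery is read at OD600.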
Active calls of the source: *; ? = inconclusive; / = no result given; & = joins results of further samples; ! = not confirmed by another sample; [ ] = dose if it differs, or a comment. Unless noted, calls follow the shape of the dose curve; as a rule, active means well fitted rising curve with a large enough effect; inconclusive means small, poorly fitted or top-dose-only effect; inactive means no such curve, though single readings can be large or run the other way. Potency is read from the fitted curve at half-maximal effect.

SMILES	2A StopGo	SARS PLpro yeast	Cruzain inh Det	RE007 growth inh	Lassa entry inh	Cruzain noTriton	Marburg entry inh	NS1 inh
CC(C)NC(=O)CN(Cc1ccc2c(c1)OCO2)C(=O)CCC(=O)Nc1ccccn1	-3.6%	0.0%	/	0.4%	3.5%	/	17.3%	-12.3%
O=c1cc2nc(-c3ccccc3)nc(SCc3cccc(Br)c3)n2[nH]1	0.0%	/	1.9%	/	9.6%[46.1 µM]	-18.2%	/	/
COc1cccc(C(=O)NCC(=O)n2nc(C)cc2C)c1	8.5%	1.5%	-1.5%	-9.0%	-4.7%	-3.3%	0.5%	-20.9%
Cn1c(=S)n(/N=C/c2cccs2)c2ccccc21	12.7%	0.3%	/	-9.5%	0.3%	/	15.4%[14.2 µM]	-6.1%
COc1cc(C(=O)NCCCc2nc3ccccc3n2CC(C)C)cc(OC)c1OC	-6.8%	/	2.1%	/	-8.2%[46.1 µM]	-7.0%	0.9%[46.1 µM]	/
COCCn1ccc2c(OCC(=O)Nc3ccccc3OC)cccc2c1=O	-24.9%	1.7%	/	-3.1%	-26.0%[46.1 µM]	/	-2.9%	/
Cc1ccccc1C(=O)NCC(=O)N1CCN(C/C=C/c2ccccc2)CC1	0.0%	-5.0%	/	-9.1%	-2.9%	/	-22.8%	/
CC(OC(=O)c1ccncc1)C(=O)Nc1cc(S(=O)(=O)N2CCCCC2)ccc1Cl (stereo unspecified)	8.0%	19.9%	-2.2%	-16.4%	14.2%	16.0%	16.2%	20.4%
Cc1ccc(Cn2c(C)cc3c(c2=O)C(c2cccs2)C(C#N)=C(N)O3)cc1 (stereo unspecified)	-0.2%	-3.1%	4.7%	7.6%	-15.6%[14.3 µM]	-24.7%	?	4.2%
Cc1ccc(CNC(=O)CCCn2nc(C)c3c(C)n(-c4ccccc4)nc3c2=O)cc1	7.08µM*!	1.8%	0.6%	-12.9%	19.8%[46.1 µM]	-4.6%	/	4.5%
N#C/C(=N\Nc1ccc(F)cc1)C(=O)C1CC1	2.1%	-4.2%	/	-26.3%	/	/	/	-76.6%
Cc1cccc(CSc2nnc(NC(=O)CSc3nnc(C)s3)s2)c1	-3.4%	-14.8%	5.3%	28.1%	-15.3%	?	27.7%	14.7%
CCOc1ccc(-c2noc(CCC(=O)O)n2)cc1	?	8.4%	4.3%	-0.8%	/	-17.1%	/	-50.8%
CN1c2ccccc2C(=O)/C(=C\Nc2ncccn2)S1(=O)=O	1.8%	0.3%	/	-0.6%	23.4%[46.1 µM]	/	12.5%&12.5%[46.1 µM]	6.6%
CC1=CC(C)(C)N(S(=O)(=O)c2ccc(F)cc2)c2ccc(C)cc21	/	0.4%[6.58 µM]	-1.6%	9.0%	-20.2%	-12.2%	?	4.1%
COc1ccc(C(=O)NNC(=O)CCn2nnc(-c3ccc(C)cc3)n2)cc1OC	-15.0%	-0.9%	/	26.2%	-18.9%	/	0.0%[46.1 µM]	/
CCN(CC)c1ccc2ccc(=O)oc2c1	23.6%	-0.7%	/	23.8%	-15.8%	/	0.7%[46.1 µM]	-7.8%
Cc1ccc(OCCC(=O)NNC(=O)c2ccc(Br)cc2)cc1	-1.2%	5.0%	/	10.4%	1.4%	/	0.8%	/
COc1ccc2c(c1)c(=O)c(C(=O)c1ccc(F)cc1)cn2CC(=O)Nc1ccc(F)cc1	-15.4%	-3.2%	-2.7%	14.7%	-0.7%	-4.1%	-17.0%	-4.9%
CC(=O)Nc1cc2c(cc1[N+](=O)[O-])-c1ccccc1C2O (stereo unspecified)	17.9%	/	/	-16.2%	?	/	-14.4%[46.1 µM]	/
Cc1ccc(C(=O)NCCSC(C)(C)C)cc1	-21.4%	9.1%	4.3%	27.9%	10µM*	10.4%	8.91µM*	-6.4%
C#CC(C)(C)NC(=O)c1cnc(-c2ccccc2)nc1-c1ccccc1	-0.4%	0.9%	/	-9.5%	/	/	/	-4.8%
COc1cccc2sc(N(Cc3cccnc3)C(=O)c3ccc4c(c3)OCCO4)nc12	?	/	0.6%	/	-8.4%[46.1 µM]	?	/	/
COC(=O)c1cc2oc(C)cc2n1Cc1ccc(Br)cc1F	0.0%	/	-8.5%	/	/	-24.5%	2.3%[46.1 µM]	/
O=C(NCCc1ccccc1F)C1CCC(=O)N(CCCN2CCCC2=O)C1 (stereo unspecified)	8.9%	-0.6%	/	8.8%	/	/	/	6.0%
CC(C)Oc1ccc(S(=O)(=O)N2CCOCC2)cc1NC(=O)Cc1ccsc1	5.0%	-1.8%	/	0.3%	/	/	5.1%	/
Clc1nc(-c2ccccn2)nc2scc(-c3ccccc3)c12	?	-76.2%	0.6%	?	?	-12.2%	?	-45.5%
CCOC(=O)c1c(NC(=O)COC(=O)CNC(=O)c2ccc(Cl)cc2Cl)sc(C(=O)N(C)C)c1C	3.2%	-0.8%	/	9.5%	?	/	23.4%	/
COc1ccc(-c2cc(-c3ccc(N)cc3)nc(N)c2C#N)cc1OC	-11.5%	-0.2%	/	1.1%	?	/	?	13.3%
Fc1cccc(CN2CCSCC2)c1	-5.4%	-1.4%	/	-16.0%	13.8%[46.1 µM]	/	2.2%[46.1 µM]	-1.1%
O=C(Nc1ccc(S(=O)(=O)N2CCCC2)cc1)c1ccc([N+](=O)[O-])cc1	-23.7%	10.2%	/	7.5%	?	/	-12.7%[46.1 µM]	5.6%
Cc1csc(NC(=O)C2CCN(S(=O)(=O)c3ccccc3F)CC2)n1	-29.2%	-0.1%	/	6.9%	-25.2%	/	?	/
CCCN(CCC)CCCNC(=O)C1CCN(S(=O)(=O)c2cccc3nsnc23)CC1	-10.8%&-19.7%	-14.3%	-4.5%	4.9%	16.6%[46.1 µM]	-6.3%	1.5%[46.1 µM]	-10.9%
C/C(=N\N(c1ccccc1)c1ccccc1)c1ccc(O)cc1	-20.2%	-16.1%	/	?	11.8%	/	-1.5%[46.1 µM]	-54.6%
CC(C)(CNC(=O)c1ccccc1NS(C)(=O)=O)N1CCCCC1	3.6%	7.5%	/	-6.4%	?	/	?	11.8%
COCCNC(=S)N(CCO)Cc1cc2cc3c(cc2[nH]c1=O)OCCO3	-9.6%	14.6%	/	1.7%	/	/	/	8.3%
CC1C(c2cccs2)=[N+]([O-])C(C)(C(=O)c2cccs2)N1O (stereo unspecified)	-6.2%	13.4%	-1.8%	/	?	10.7%	?	12.0%
O=C(Nc1ccc(Br)cn1)c1ccc2nccnc2c1	0.7%	/	/	-4.7%	?	/	?	-15.7%
CCCc1nnc(NC(=O)CCC(=O)NCc2ccccc2Cl)s1	?	26.5%	/	0.0%	/	/	/	3.4%
Cc1ccc2nc(/C=C/c3cccc(F)c3)ccc2c1	-12.3%	1.6%	-10.2%	-12.5%	?	18.7%	?	-5.6%
Cn1c(=O)c(NC2CCCCC2)c2c3c(cccc31)C(=O)c1ccccc1-2	-3.0%	0.7%	/	2.8%	?	/	?	-6.4%
Cc1cc2nc3c(=O)n(C)c(=O)n(C)c3nc2cc1N=CN(C)C	4.0%	/	-2.3%	/	-1.5%[46.1 µM]	6.5%	-14.7%[46.1 µM]	/
CCCCN(C(=O)C1CCN(C(=O)c2ccccc2C)CC1)c1c(N)n(CCC)c(=O)[nH]c1=O	-4.6%	-3.8%	/	55.1%	-15.4%	/	18.6%	/
COC(=O)c1ccccc1NS(=O)(=O)c1cn(C)c(=O)n(C)c1=O	7.4%	-0.5%	-0.9%	-0.5%	/	4.1%	/	-11.9%
Cc1cc2c(cc1C)NC(CC(=O)Nc1cccc(C)c1C)C(=O)N2 (stereo unspecified)	-6.9%	/	-1.4%	/	-3.6%[46.1 µM]	5.5%	/	/
O=C(CSc1nnc(CNC(=O)c2cccs2)o1)Nc1ccc2c(c1)OCO2	-0.1%	1.6%	-2.4%	48.2%	?	2.0%	28.8%[46.1 µM]	4.1%
CCCCN(CC)CCCNC(=S)Nc1ccc2nc(N3CCN(C)CC3)cc(C)c2c1	-17.6%	-0.6%	/	-18.7%	?	/	2.51µM*	5.2%
COc1ccc(OC)c(/C=N/n2c(-c3n[nH]c4c3CCC4)n[nH]c2=S)c1	-17.9%	-0.1%	/	3.3%	?	/	-4.6%	3.2%
CCCn1c(=O)c2ccccc2n2c(SCC(N)=O)nnc12	-12.5%	-6.0%	/	4.5%	28.2%[46.1 µM]	/	-0.7%[46.1 µM]	-5.8%
Cc1nc(-c2ccc(C(=O)NCCO)cc2)cs1	41.1%[activator]	2.9%	/	-1.6%	10.6%	/	10.2%[46.1 µM]	/
O=C(CSc1nnc2ccccn12)NNC(=O)c1ccccc1	-6.2%	0.7%	/	0.3%	/	/	/	0.9%
CC1CCc2nn(CC(=O)NC3CCCC3)cc2C1 (stereo unspecified)	0.5%	-3.6%	4.1%	15.0%	/	-5.0%	/	-5.0%
O=c1cc(O)n(-c2ccc(F)cc2)c(=S)[nH]1	0.0%	16.8%	4.0%	-13.9%	?	4.9%	0.3%	10.4%
CCOc1ccc(C(=S)N2CCOCC2)cc1	-18.1%	5.2%	2.2%	4.9%	-8.3%	0.3%	18.9%	-5.1%
O=C(O)c1ccc(N/N=C2/CCSc3ccc(F)cc32)cc1	?	-13.4%	/	?	-10.6%[46.1 µM]	/	17.7%[46.1 µM]	-108.2%
CCOc1ccc(-n2nnnc2SCC(=O)Nc2ccc(NC(C)=O)cc2)cc1	3.7%	-3.8%	/	2.6%	/	/	/	-4.1%
CNC(=O)Cn1c(=O)c2cccn2c2ccc(F)cc21	0.0%	/	-6.2%	/	-14.8%[46.1 µM]	5.8%	/	/
CCOc1ccccc1CN1CCc2nc(Nc3ccc4c(c3)OCCO4)ncc2C1	?	/	-2.4%	/	-13.3%[46.1 µM]	1.8%	/	/
COc1ccc(CCC(=O)NCc2cn3ccc(C)cc3n2)cc1	-22.4%	1.3%	/	-7.3%	/	/	/	-0.7%
